HPGD inh: qHTS Assay for Inhibitors of HPGD (15-Hydroxyprostaglandin Dehydrogenase). 150,000 compounds, 4.3% hits. Potency, µM, for the others: at the highest dose activity change, negative = inhibition, actives largely listed as inhibitors. purified HPGD, NADH fluorescence kinetic, PGE2 substrate. AID 894, 2007. 15-hydroxyprostaglandin dehydrogenase [NAD(+)] (Homo sapiens), P15428; active = well fitted inhibition curve with a large enough effect (not every such curve was filed as active); inconclusive = small, poorly fitted or top-dose-only effect, or another doubt; inactive = no such curve, though single readings can be large or run the other way;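 further: top concentration of the series not given in the record; plate controls included wells without enzyme; inactives centre near -10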
Target sequence (P15428 whole entry, looked up): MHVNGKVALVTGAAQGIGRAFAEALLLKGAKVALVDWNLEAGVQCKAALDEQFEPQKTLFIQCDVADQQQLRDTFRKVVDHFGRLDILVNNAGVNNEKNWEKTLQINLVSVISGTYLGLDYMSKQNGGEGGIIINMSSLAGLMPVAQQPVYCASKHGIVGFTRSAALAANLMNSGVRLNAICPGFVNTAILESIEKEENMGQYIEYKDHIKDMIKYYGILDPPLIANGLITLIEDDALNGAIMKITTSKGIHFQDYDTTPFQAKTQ
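20 nM HPGD preincubated 15 min at room temperature with compound in 50 mM Tris-HCl pH 8, 0.01% Tween 20. Started with 1 mM NAD+ and 30 uM prostaglandin E2; NADH fluorescence (360/450 nm) read 5 times over 30-s intervals, last minus first.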
Active calls of the source: *; ? = inconclusive; & = joins results of further samples. On the % scale 0 is the no-effect control and ±100 the full control effect; potency means the concentration at half of the fitted maximal effect. The list is partial, so the mix of outcomes need not match the whole.

SMILES,HPGD inh
COC(=O)C1=C(C)NC(C)=C(C(=O)OC)C1c1cn(-c2ccccc2)nc1-c1ccco1,?
CNC[C@H](O)c1ccc(O)c(O)c1,-16%&-10%&-19%&-6%
CN(C)C(=O)c1ccc(-c2nc(N(C)Cc3ccco3)c3ccccc3n2)cc1,13µM*
Cc1ccc(C(=O)n2nnc3ccccc32)cc1[N+](=O)[O-],-12%
O=C(CN1C(=O)/C(=C\c2cccc(F)c2)Oc2ccccc21)N1CCN(c2ccccn2)CC1,?
Cn1cnc([N+](=O)[O-])c1Oc1cccc2ccccc12,-13%
O=C(NCCCN1CCOCC1)c1cccnc1,1%
COC(=O)c1scc(C)c1N/N=C(\C)c1cc(F)c(Cl)cc1F,?
O=C(Nc1ccccc1)N(Cc1ccccc1)CC(O)C(F)(F)F (stereo not drawn),-4%
CCCc1nnc2c(N(C)S(=O)(=O)c3ccccc3)nc3ccccc3n12,-4%
CCn1nc(NC(=O)c2ccccn2)c2cc3cc(C)ccc3nc21,?
Cc1ccc(-c2nnc(-n3ncc(C#N)c3N)c3ccccc23)cc1C,-11%
Cc1ccc(OCC(=O)NNC(=O)C(=O)N2CCCC2)c(C)c1,-3%
CCn1c(CNc2ccc(C)cc2C)nnc1SCC(=O)N1CCCc2ccccc21,-11%
CC(=O)N(O)CCCCCNC(=O)CCC(=O)N(O)CCCCCNC(=O)CCC(=O)N(O)CCCCCN,-9%&2%&-8%
CC(Sc1nc2ccccc2c(=O)n1Cc1ccco1)C(=O)c1ccccc1 (stereo not drawn),-7%
Cc1cc(C)c2nc(SCC(=O)NCCC3=CCCCC3)cc(C)c2c1,-1%
Cc1cccc2cc(COC(=O)c3ccccc3)c(=O)[nH]c12,-14%
CCCCCc1c(C)nc(N2CCOCC2)[nH]c1=O,0%
Cc1cccc(CNc2ncnc3ccc(-c4ccccc4C#N)cc23)c1,?

Brought forward from above: 3 entries, then new ones.
SMILES,HPGD inh
Cc1cccc2cc(COC(=O)c3ccccc3)c(=O)[nH]c12,-14%
CCCCCc1c(C)nc(N2CCOCC2)[nH]c1=O,0%
Cc1cccc(CNc2ncnc3ccc(-c4ccccc4C#N)cc23)c1,?
O=S(=O)(c1ccc(Cl)cc1)c1cnc(-c2cccnc2)nc1-c1ccccc1,-11%
O=C(CCCSc1nc2ccccc2[nH]1)NC1=NCCS1,-14%
COc1ccc(C(C)=O)cc1CSc1nnc(Nc2ccc(C)cc2C)s1,?
C/C(N)=C(/C#N)C(=O)CSc1nc2ccccc2c(=O)n1CCCO,-6%
N[C@@](CCc1ccccc1)(C(=O)O)c1ccccc1,-5%
Cc1cc(C)c(C#N)c(SC(F)F)n1,-18%
Cc1cc(C)n(-c2nc3ccccc3c(=O)n2OCC(N)=O)n1,1%
Cc1ccc(-n2c(SCC(=O)Nc3ncc(Cl)cc3Cl)nc3ccccc32)cc1,-16%
COc1ccc(-c2nc3ccccc3n2CCC(C)C)cc1OC,-26%
Cc1ccc(N(C)S(=O)(=O)c2cccc(C(=O)NC3=NCCS3)c2)cc1,-1%
CCCc1[nH]nc2c1C1(CCN(C(=O)OCc3ccccc3)CC1)C(C#N)=C(N)O2,-25%
CCc1ccccc1NS(=O)(=O)c1ccc2[nH]cc(C(=O)NC3CCCC3)c(=O)c2c1,-28%
O=C(OCCN1C(=O)c2ccccc2C1=O)c1cc(=O)[nH]c2ccccc12,-21%
CCOc1ccccc1N1CCN(C(=O)c2cc3c(s2)CCC3)CC1,0%
O=C(Nc1nc(-c2ccccc2)cs1)c1ccc2c(c1)S(=O)(=O)c1ccccc1C2=O,-7%
COc1nc(C)nc2c1sc1nc3c(cc12)COC(C)(C)C3,?
COc1cc(NS(=O)(=O)c2ccc(Br)s2)cc(OC)c1,-8%
CCC(c1nnnn1CCOC)N(Cc1cc2cc(C)c(C)cc2[nH]c1=O)CC1CCCO1 (stereo not drawn),-6%
CCNC(=O)C12CCC(C)(C(=O)C1Br)C2(C)C (stereo not drawn),-6%
Cc1nnc(SCC(=O)Nc2cccc(C(F)(F)F)c2)[nH]c1=O,-22%
COc1ccc(Br)cc1C1NC(=O)NC(C)=C1C(=O)N(C)C (stereo not drawn),1%
COc1ccc(/C=N/Nc2cc(C)nc(-n3nc(C)cc3C)n2)cc1,-4%
COc1ccc(Cc2nnc(NC(=O)c3ccco3)s2)cc1OC,-13%
CCC1CCCCN1C(=O)c1cc(-c2ccc(Cl)c(Cl)c2)on1 (stereo not drawn),4.5µM*
CCOc1ccc(NS(=O)(=O)c2ccc(N)cc2)cc1,-10%
COc1cccc(-c2nc(NCC3CCCO3)c3ccccc3n2)c1O (stereo not drawn),-10%
CCN(CC)C(=O)CSc1nnc(-c2cc(OC)cc(OC)c2)o1,?
O=C1c2ccccc2C(=O)c2c1ccc1c(=O)n(-c3ccccc3)[nH]c21,-5%
COc1cc(C)nc(Oc2ccc(OCc3ccccc3)nn2)n1,-12%
COc1ccc(CCNC(=O)COc2ccc(S(=O)(=O)NC(C)C)cc2Cl)cc1OC,-5%
COC(=O)C1=C(C)NC(C)=C(C(=O)OC)C1/C=C/c1ccccc1,-18%
COC(=O)C1=C(C)N2C(=O)CSC2=NC1c1ccc2c(c1)OCO2 (stereo not drawn),-13%
N#C/C(=C/c1ccc([N+](=O)[O-])cc1)C(=O)Nc1ccccc1O,-3%
Fc1ccccc1-c1ccc(/C=N/Nc2nc3ccccc3[nH]2)o1,-20%
Cc1ccc(C(=O)Nc2ccc(S(=O)(=O)NCc3ccco3)cc2)cc1,-29%
Cc1cc(C)nc(N2C(=O)CC(Cc3ccccc3)C2=O)n1 (stereo not drawn),-9%
CC(=O)Nc1cccc(NC(=O)CSc2nc3ccccc3o2)c1,-6%
CCCOc1ccc(/C(O)=C2/C(=O)C(=O)N(CCCOC)C2c2ccncc2)cc1 (stereo not drawn),-18%
O=C(CCN1CCCCC1)Nc1cccc(Cl)c1,-9%
C=CCNC1=C(Cl)C(=O)N(c2cccc(Cl)c2Cl)C1=O,-10%

Structural class, those above with a CF3 group
SMILES,HPGD inh
O=C(Nc1ccccc1)N(Cc1ccccc1)CC(O)C(F)(F)F (stereo not drawn),-4%
Cc1nnc(SCC(=O)Nc2cccc(C(F)(F)F)c2)[nH]c1=O,-22%

The list goes on.
SMILES,HPGD inh
O=[N+]([O-])c1cccc(-n2nnnc2CN2CCCCCC2)c1,5%
N#Cc1ccc(CN2CC3(CCN(C(=O)c4cc(C(F)(F)F)cc(C(F)(F)F)c4)CC3)C2)cc1,-7%
CN(C)CCn1nnnc1SCC1=C(C(=O)O)N2C(=O)[C@@H](NC(=O)Cc3csc(N)n3)[C@@H]2SC1,-10%
COC(=O)c1cc(C#N)c(Oc2ccc(OC)cc2)nc1C,-13%
CC(=O)NS(=O)(=O)c1ccc(N=c2ssc3c2-c2cc(C)c(C)cc2NC3(C)C)cc1,-12%
O=[N+]([O-])c1cn(-c2nc(-c3ccco3)cc(C(F)(F)F)n2)cn1,-17%
COc1c(C(=O)Nc2c(C)n(C)n(-c3ccccc3)c2=O)ccc2ccccc12,-14%
C/C(=N\NC(=O)CSCc1ccc([N+](=O)[O-])cc1)c1ccccc1O,-18%
O=C(CSc1nnnn1C1CCCCC1)N1CCc2ccccc21,-19%
COCCNC(=O)C(=O)Nc1cccc(Br)c1,-3%
CCc1nnc(NC(=O)c2ccc3c(c2)C(=O)N(CC(C)C)C3=O)s1,-2%
CC(C)N(C(=S)Nc1cc(S(=O)(=O)N2CCOCC2)ccc1Cl)c1ccccc1,-9%
Cc1ccc(OCC(=O)NC(=S)Nc2cccc(NC(=O)c3ccccc3)c2)cc1,-8%
O=C(Nc1cccc(NC(=O)c2ccccc2[N+](=O)[O-])n1)c1ccccc1[N+](=O)[O-],-10%
CCn1c(SCC(=O)Nc2ccccc2)nnc1C1CCCCC1,-10%
O=C1C(C=NCc2ccco2)=C(O)c2ccccc21,-16%
Clc1ccsc1-c1csc(-c2cccnc2)n1,?
Oc1ccc(N=Cc2sc3ccccc3c2Cl)cc1,-19%
COc1ccc(NC(=O)c2ccc3ccccc3n2)cc1S(=O)(=O)Nc1ccccc1Cl,-11%
CCCCn1c(=N)n(CCOc2ccc(C)cc2)c2ccccc21,-5%

Following part:
| smiles | HPGD inh |
| --- | --- |
| CC1CC(C)CN(c2oc(-c3ccco3)nc2C#N)C1 (stereo not drawn) | ? |
| COC(=O)C1CCN(C(=O)NC(C)(C)C)CC1 | 0% |
| Cc1ccccc1NC(=O)CSc1nc2ccccc2c2nc(CCn3cncc3C)nn12 | -8% |
| O=C(NCC1c2ccccc2CCN1C(=O)CN1CCOCC1)C1CCCCC1 (stereo not drawn) | -9% |
| N#CC(C(=O)NCCc1ccccc1)c1nc2ccccc2nc1N1CCCCC1 (stereo not drawn) | -18% |
| COc1cccc2c1OC1(C)CC2NC(=O)N1Cc1ccccc1 (stereo not drawn) | -6% |
| CN(C)CCNC(=O)Nc1ccc(Cl)c(Cl)c1 | -9% |
| Cn1cc(C(=O)NCC2COc3ccccc3O2)c(=O)c2cc(S(=O)(=O)N3CCCCC3)ccc21 (stereo not drawn) | -17% |
| COc1ccc(O)c(CN2CCN(C/C=C/c3ccccc3)CC2)c1 | 0% |
| O=C(Nc1nnc(-c2ccco2)s1)C1CCN(S(=O)(=O)c2ccc(Cl)cc2)CC1 | ? |
| Cc1cc(C)c(C(=O)COC(=O)c2cccc(S(=O)(=O)NCc3ccccc3)c2)cc1C | -23% |
| Cc1cc[n+]2cc(-c3cccc([N+](=O)[O-])c3)c(-c3cccc([N+](=O)[O-])c3)cc2c1 | 0% |
| COc1ccccc1C1(O)CCN(CC(=O)Nc2c(C)nn(C)c2C)CC1 | -12% |
| CC1=C(C(=O)Nc2ccccc2C)C(c2ccc(C)o2)N2C(=O)CSC2=N1 (stereo not drawn) | -9% |
| CCc1nc(OCc2ccccc2)c2sc3nc4c(cc3c2n1)COC(C)(C)C4 | -25% |
| Cn1cccc1C1NC(=O)c2c(sc3c2CCC(C(C)(C)C)C3)N1 (stereo not drawn) | -20% |
| CCCCCCCCCCCCCCCCO | -13% |
| Cc1ccc(Cn2c(=N)n(CC(=O)c3ccc([N+](=O)[O-])cc3)c3ccccc32)cc1 | -2% |
| N#Cc1c(NC(=O)c2cnccn2)sc2c1CCCC2 | 28µM* |
| Cc1cc(C)c2nc(SCC(=O)N3CCCCC3)c(C#N)cc2c1 | -15% |
| O=C(NCCN1CCOCC1)c1ccc2c(c1)N(Cc1ccccc1F)C(=O)CS2 | -5% |
| Cc1cc2nc(C3CCCN(C(=S)Nc4ccccc4)C3)[nH]c2cc1C (stereo not drawn) | -1% |
| CCOC(=O)c1ccc(NC(=O)CSc2nnc(COc3ccccc3OC)n2CC)cc1 | 2% |
| CCCCc1ccc(-c2csc(/C(C#N)=C\c3ccco3)n2)cc1 | -27% |
| Oc1c(C(Nc2nc3ccccc3s2)c2ccco2)ccc2cccnc12 (stereo not drawn) | -5% |
| COc1ccc(-n2c(SCC(=O)Nc3nccs3)nnc2-c2ccoc2C)cc1 | -5% |
| CC(=O)Nc1c(C(=O)O)[nH]c2ccccc12 | -5% |
| COc1ccc(C(=O)Nc2nncs2)cc1S(=O)(=O)N1CC(c2ccccc2)CC1=O (stereo not drawn) | -9% |
| CC(=O)Oc1cccc(N2C(=O)C3C(C2=O)C2C=CC3C23CC3)c1 (stereo not drawn) | -14% |
| Cc1cc(C(F)(F)F)nn1Cc1n[nH]c(=S)n1-c1ccc(F)cc1 | -15% |
| COc1ccc2c(c1OC)C(=O)N(c1cccc(C)c1)C2=O | -13% |
| CCOc1ccc(N2C(=O)c3cccnc3C2Nc2ccc(Cl)cc2)cc1 (stereo not drawn) | -1% |
| Cc1ccccc1Cn1nnc(-c2ccc3c(c2)OCO3)n1 | -17% |
| Cc1ccc2c(c1)C(O)(c1c(C)[nH]c3ccccc13)C(=O)N2 (stereo not drawn) | -2% |
| O=C(CN1C(=O)CSC1=O)Nc1ccc(F)c(F)c1F | -15% |
| CCC[C@@H]1C[C@@]1(CCC)[C@@H](NP(=O)(c1ccccc1)c1ccccc1)c1ccc(C(=O)OC)cc1 | -15%&-19% |

Reprinted at random: two entries already listed.
| smiles | HPGD inh |
| --- | --- |
| CCC[C@@H]1C[C@@]1(CCC)[C@@H](NP(=O)(c1ccccc1)c1ccccc1)c1ccc(C(=O)OC)cc1 | -15%&-19% |
| COc1ccc2c(c1OC)C(=O)N(c1cccc(C)c1)C2=O | -13% |

Additional results.
| smiles | HPGD inh |
| --- | --- |
| Cc1ccc(-n2ncc3c(NNC(=O)Cc4ccccc4)ncnc32)cc1 | -17% |
| O=C1CC(c2cccs2)c2cc3c(cc2N1)OCO3 (stereo not drawn) | -10% |
| Cc1cccc(C)c1NC(=O)CCS(=O)(=O)c1cccc2nsnc12 | ? |
| O=c1[nH]c(Nc2nc3ccccc3o2)nc2c1CCCC2 | -13% |
| O=C(COC(=O)CNC(=O)c1ccc(Cl)cc1)Nc1ccc(Cl)cc1C(F)(F)F | 0% |
| Cc1ccc2nc(CC(=O)c3ccc4ccccc4c3)c(=O)[nH]c2c1 | 0% |
| COc1cc(OC)cc(-c2nnc(SCc3cccc(C(=O)O)c3)o2)c1 | 11µM* |
| CCS(=O)(=O)Nc1cccc(C(=O)CC2(O)C(=O)Nc3ccccc32)c1 (stereo not drawn) | -16% |
| CC(C)Oc1ccc(C(CC(=O)O)NC(=O)c2cccs2)cc1 (stereo not drawn) | -9% |
| CCOc1ccc2nc(N3CCCC(C(=O)N4CCN(CC)CC4)C3)sc2c1 (stereo not drawn) | -20% |
| CCC(C)NC(=O)Cn1nc(C(F)(F)F)c2c1CCCC2 (stereo not drawn) | -6% |
| COCCCNCCOc1ccccc1-c1ccccc1 | -1% |
| COC(=O)c1ccccc1NC(=O)Cn1ccnc1 | -7% |
| CCOC(=O)N1CCN(C(=O)c2ccc3nc4ccsc4c(=O)n3c2)CC1 | ? |
| O=C(Nc1cc2ccccc2oc1=O)C1CCCCC1 | -12% |

Bioassay records as filed in PubChem.
